Calb FLC: C. albicans growth modulation with fluconazole | C. albicans CaCi-2 (fluconazole-resistant clinical isolate) + fluconazole, Alamar Blue growth, 48 h | growth inhibition, % (test concentration not listed) | 300,000 compounds, 0.57% hits | AID 1979;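 active means most replicates above 75%; inconclusive means exactly half above 75%; inactive means most below 75%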;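 further: all wells also contain fluconazole at 8 µg/ml as a sub-toxic cotreatment; 0% = median of DMSO wells and 100% = median of geldanamycin control wells; wells of about 8 µL received 7.5 nL stock; the first replicate is given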
RanGTP-Imp inh: inhibitors of RanGTP-importin-beta interaction, primary screen, biochemical, FRET, CFP-Ran, YFP-importin-beta, homogeneous. inhibition, % (concentration not given with the values). AID 2216. cell-free CFP-Ran/YFP-importin-beta FRET ratio. 300,000 compounds, 1.1% hits;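 active means most replicates above 15%; inconclusive means exactly half above 15%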;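 further: 0% = DMSO wells and 100% = Ran loaded with GDP instead of GTP; wells of about 40 µL received 100 nL stock; the first replicate is given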
A1 inh: inhibitors of the anti-apoptotic protein A1, read as caspase activation | MEF A1-2A-BIM cells, Caspase-Glo 3/7 luminescence, 3 h; percent of clofoctol response, vehicle zero | caspase activation, % (test concentration not listed) | 330,000 compounds, 0.066% hits;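 active means over half of replicate activation scores above 10%, or exactly half above 10 with the replicate mean above 10; inconclusive means replicate mean below 10 yet half the replicates above 10; inactive means over half of replicates below 10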;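 further: wells of about 30 µL received 50 nL stock; many hits fall short of the cut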
Beta cell apopt: blocks beta cell apoptosis. INS-1E cytokine-induced death, ATP luminescence, 48 h; percent of positive-control rescue, neutral wells zero. protection from apoptosis, % (no concentration beside the values). 300,000 compounds, 0.8% hits. AID 435005;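 active means all replicates at 75% or more, or half of them and the mean; inconclusive means half reach 75% but not the mean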;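 further: 0% = cytokine-treated negative control wells and 100% = positive control rescue; higher means more ATP so stronger rescue from cytokine killing; wells of about 40 µL received 100 nL stock; the first replicate is given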
T cruzi inh: blocks replication of Trypanosoma cruzi; T. cruzi beta-gal in NIH3T3, luminescence, 90 h; inhibition, % (test concentration not listed); 300,000 compounds, 1.4% hits;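 active means mean inhibition across valid replicates above about 55%, limit read from the data; inconclusive means mean below that limit but half or more replicates reach it; inactive means mean below it, under half of replicates reach it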;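 further: signal also drops with host cell toxicity which is not excluded here; 0% = plate median of DMSO wells and 100% = zero luminescence signal; higher percent means less beta-gal luminescence so fewer parasites; stock transfer was 50 nL into about 50 µL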
B2AR ag: agonists of human beta-2 adrenergic receptor inducing internalization. P07550. Am2.2-beta2AR cells, FAP receptor internalization, flow cytometry; reference of the scale not given here. response, % (concentration not given with the values). 340,000 compounds, 0.43% hits;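 active means response above a set limit, near 3 SD of response in nonfluorescent compounds, cut at about 42% in these data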;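 further: stock transfer was 100 nL into about 11 µL; a reference agonist was the positive control; negative values mostly stem from fluorescent compounds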
UCH37 DUB inh: human UCH37 deubiquitinating enzyme inhibition; Q9Y5K5; purified proteasome/UCH37, Ub-AMC cleavage fluorescence; inhibition, % (concentration not given with the values); 330,000 compounds, 0.33% hits;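 active means mean of two replicates above 20%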;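 further: 0% = compound-free wells with enzyme and 100% = wells lacking proteasome; stock transfer was 100 nL into about 20 µL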
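system = Proteasome-associated human UCH37 deubiquitinase | amount = 0.15 nM proteasome as dispensed | medium = pH 7.4 Tris-HCl (50 mM) with ovalbumin, ATP-MgCl2, DTT | incubation = 30 min preincubation with enzyme, 25 min cleavage at room temperature | detection = AMC fluorescence 355/460 nm | read-out basis = percent inhibition | controls = no-proteasome and no-compound wells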
LANA-H2A inh: blocks KSHV LANA binding to histone H2A/H2B; cell-free LANA-H2A/H2B peptide, fluorescence polarization; inhibition, % (test concentration not listed); 320,000 compounds, 0.6% hits; in the data active means inhibition mostly above about 10%, no sharp cut-off; inactive means mostly below about 6.7%;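 further: stock transfer was 7.5 nL into about 10 µL; 0% = median of vehicle wells and 100% = median of positive control wells; one replicate is shown; the record names a cut of 25% in any replicate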
Target sequence (Q9QR71 whole entry, looked up): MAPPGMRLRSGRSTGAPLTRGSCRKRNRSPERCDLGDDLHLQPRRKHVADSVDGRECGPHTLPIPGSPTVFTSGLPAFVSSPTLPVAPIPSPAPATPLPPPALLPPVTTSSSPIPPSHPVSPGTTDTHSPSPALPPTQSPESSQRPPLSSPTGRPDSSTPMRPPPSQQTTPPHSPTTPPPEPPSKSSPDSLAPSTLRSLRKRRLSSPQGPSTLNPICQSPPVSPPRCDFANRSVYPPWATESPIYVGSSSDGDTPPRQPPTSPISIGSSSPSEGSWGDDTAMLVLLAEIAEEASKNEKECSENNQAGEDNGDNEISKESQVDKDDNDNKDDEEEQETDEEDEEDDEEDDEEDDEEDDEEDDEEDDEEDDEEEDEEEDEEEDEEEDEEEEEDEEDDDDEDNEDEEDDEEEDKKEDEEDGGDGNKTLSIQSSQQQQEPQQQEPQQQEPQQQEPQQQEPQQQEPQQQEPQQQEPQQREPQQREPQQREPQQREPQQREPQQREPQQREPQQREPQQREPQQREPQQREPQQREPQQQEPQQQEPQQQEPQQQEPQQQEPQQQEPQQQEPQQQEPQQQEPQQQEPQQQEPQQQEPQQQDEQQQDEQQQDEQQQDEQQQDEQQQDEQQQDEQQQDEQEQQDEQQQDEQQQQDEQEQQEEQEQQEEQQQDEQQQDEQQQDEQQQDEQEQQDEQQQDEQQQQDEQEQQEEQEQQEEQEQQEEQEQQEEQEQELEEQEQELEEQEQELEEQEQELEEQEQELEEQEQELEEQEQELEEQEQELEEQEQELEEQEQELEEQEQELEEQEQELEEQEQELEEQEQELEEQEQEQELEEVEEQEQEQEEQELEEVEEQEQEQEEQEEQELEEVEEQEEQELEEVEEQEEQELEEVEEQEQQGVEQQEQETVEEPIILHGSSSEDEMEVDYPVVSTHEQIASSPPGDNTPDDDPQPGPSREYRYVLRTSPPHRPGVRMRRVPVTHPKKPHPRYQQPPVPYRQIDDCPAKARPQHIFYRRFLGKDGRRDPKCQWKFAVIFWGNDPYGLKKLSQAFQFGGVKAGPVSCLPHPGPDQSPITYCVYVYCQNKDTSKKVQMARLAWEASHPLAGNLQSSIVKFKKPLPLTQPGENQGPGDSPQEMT
* marks the source's active call; other numbers are inactive results; ? = inconclusive; . = not tested or not shown.

SMILES	Calb FLC	RanGTP-Imp inh	A1 inh	Beta cell apopt	T cruzi inh	B2AR ag	UCH37 DUB inh	LANA-H2A inh
O=C(O)c1ccc(Nc2cc(Cl)c3nonc3c2[N+](=O)[O-])cc1	36	-0.7	-0.9	-1	1	-3	.	3.5
CCN(CC)c1ccc(/C=N/NC(=O)Cc2ccc(OC)c(OC)c2)cc1	-8	7.8	-0.4	-4	-12	-1	.	5.3
CC1=C(C(=O)OCc2ccc3c(c2)OCO3)C(c2ccc(F)cc2)NC(=O)N1 (stereo not given)	4	3.0	0.7	-7	-50	0	0.6	-3.5
Cc1ccc(NC(=O)c2ccc(Cl)c(N3C(=O)C=CC3=O)c2)cc1	-6	2.2	3.9	-6	.	25	3.1	-1.6
CCC(c1nnc(SCC(=O)Nc2nnc(-c3ccccc3)o2)n1Cc1ccccc1)N(C)C (stereo not given)	3	-2.2	-0.4	1	3	1	0.8	2.9
CC(=O)c1cccc(NC(=O)c2c(F)c(F)c(F)c(F)c2F)c1	3	1.1	0.8	1	15	4	1.0	2.9
C/C=C\C=C/C(=O)Nc1cccc(C2=NOC3(C2)C[C@H](C(N)=O)N(C(=O)Cc2ccc([N+](=O)[O-])cc2)C3)c1 (stereo not given in full)	32	3.6	0.1	0	3	0	-0.2	7.1
Cc1c(OCC(=O)NCCCN2CCOCC2)ccc2c3c(c(=O)oc12)CCCC3	7	2.0	0.4	2	2	-5	-13	3.7
CCCOc1ccc(/C=C/C(=O)NC2CCCCC2)cc1	-4	1.6	-0.6	0	-3	-3	-1.8	3.3
CCC1CCCCN1C(=O)c1ccc(OC)c(OC2CCN(C(C)C)CC2)c1 (stereo not given)	-1	1.8	-0.4	-2	23	3	-0.1	0.0
O=C(CSCc1c(F)cccc1Cl)NNC(=S)NC1CCCCC1	-4	4.5	0.4	1	-7	-7	6.5	4.0
O=C(CNS(=O)(=O)c1c(Cl)cccc1Cl)OCC(=O)N1CCN(c2ccccc2)CC1	-5	-0.1	0.1	-3	-11	1	1.7	-3.0
COc1cccc(N2CC(NS(=O)(=O)c3cccnc3)CC2=O)c1 (stereo not given)	-2	?	0.4	5	-2	5	3.5	4.6
Cc1cccc(-c2cc3nc(C)c(C)c(NCCCn4ccnc4)n3n2)c1	-1	5.5	-0.3	0	22	-4	-7.3	0.5
O=C(N1CCOCC1)N1CCCN(C(=O)N2CCOCC2)CC1	8	?	-0.2	-1	-20	-4	1.4	-0.8
O=C(CNC(=O)/C(=C/c1ccccc1)NC(=O)c1ccc(Br)cc1)OCc1ccccc1	6	2.6	2.1	-1	-51	2	2.7	-0.2
CCS(=O)(=O)N1CCN(c2ccccc2F)CC1	16	0.9	1.0	-2	-9	-4	3.6	2.3
COC(=O)CC(N)c1ccc(Br)cc1 (stereo not given)	38	4.5	-0.6	-1	-2	10	-2.7	-4.6
O=C(O)CCCC(=O)N1CC(=O)Nc2ccccc21	-5	2.0	-0.5	-7	-1	-4	0.1	2.5
Cc1ccccc1S(=O)(=O)Cc1ccc(C(=O)NCCCN2CCCC2)o1	-2	4.5	-1.0	-9	0	-2	2.2	-0.6
COc1ccc(-n2c(CNc3ccc(C)cc3)nnc2SCC(=O)Nc2nc(-c3ccccc3)cs2)cc1	-2	-0.4	0.1	86*	8	9	4.2	-2.9
S=C(NCCN1CCOCC1)Nc1cccc2ccccc12	17	-3.4	0.6	-9	-9	7	3.5	0.9
Cc1ccc(SCc2ccc(C(=O)Nc3ccccc3C(=O)NC(C)C)cc2)cc1	5	0.9	-0.7	-4	11	-11	0.1	1.7
Cc1cc(C)cc(NC(=O)N2CCN(S(C)(=O)=O)CC2)c1	-5	-3.0	-0.2	-6	2	2	2.9	1.6
Cn1nc(C(F)(F)F)c(CO)c1Sc1ccc(F)cc1	-2	2.9	0.2	-5	-3	3	1.1	-1.0
CC1CCCC(C)N1C(=O)c1cccc2c1-c1ccccc1/C2=N/O (stereo not given)	.	.	0.5	-7	.	-5	.	-3.9
O=C(NC1CC1)C(=O)c1c(-c2ccccc2)[nH]c2ccccc12	5	0.5	0.2	2	7	3	4.1	-3.7
CCCc1nc2oc3c(=O)[nH]cnc3c2c2c1COC(C)(C)C2	2	-1.0	-0.4	-8	9	-4	-2.1	-0.9
Cc1ccc(CNc2ncnc3cc(Cl)ccc23)cc1	-2	7.4	0.1	25	-9	-2	3.7	-1.2
CC1CCCC(C)N1C(=O)CN1c2cccc3cccc(c23)S1(=O)=O (stereo not given)	.	.	0.7	-2	.	-16	-68	-1.8
CC(C)N1CCN(Cc2ccc(-c3ccccc3Cl)o2)CC1CCO (stereo not given)	.	.	0.5	-2	64*	4	7.7	3.6
O=C(CN1CCN(S(=O)(=O)c2ccccc2)CC1)NC(=O)NCc1ccccc1	-4	-5.7	0.3	-7	12	-4	-1.1	1.7
Cn1c(=NC(=O)CS(=O)(=O)c2ccccc2)sc2ccccc21	-3	4.1	-0.3	.	4	-4	5.4	0.7
CCN(C(=O)C1=COCCO1)c1nc2c(C)cccc2s1	3	2.3	-1.7	.	-2	-1	2.9	-4.5
COC(=O)N/N=C/c1cc([N+](=O)[O-])cc(Br)c1O	0	-0.4	0.0	-5	0	4	.	-5.1
CC1CCN(C(=O)CNC(=O)c2ccc(Cl)cc2Cl)CC1	-7	10	-0.4	-4	16	15	-0.4	4.1
O=C1C(=O)N(c2ccccc2)c2ccccc21	3	4.7	0.0	-10	-2	-1	1.0	-0.6
COc1cccc(NC(=O)CSc2nc(C)cs2)c1	-4	4.8	0.3	4	-1	9	0.9	-5.4
O=C(C[C@H]1C/C=C\C[C@@H](Cc2ccc(F)cc2)C(=O)OC[C@H]2CCCN2C1=O)NCCO	.	.	-0.5	1	.	-3	4.7	2.1
CCOC(=O)c1cccc(NS(=O)(=O)Cc2ccccc2)c1	4	0.1	0.6	-2	-2	.	-1.7	-1.5
COc1ccc(C(=O)NC2CCN(CC(=O)N3CCCCC3)CC2)cc1	-5	3.4	0.2	-4	-10	-2	3.0	-0.7
CC(=O)N1c2ccc(S(=O)(=O)NCCC(=O)N3CCC(C)CC3)cc2CC1C (stereo not given)	-24	2.3	0.5	.	-4	-2	1.4	-1.1
Cc1ccc(Nc2nc3c([nH]2)c(=O)[nH]c(=O)n3C)cc1	-6	-6.1	0.2	-2	-8	-5	3.2	-2.5
COc1ccc(C(=O)CSC2=NS(=O)(=O)c3cc(Cl)ccc3N2)cc1	19	1.4	-0.3	-1	0	0	-0.2	.
Cc1cc(C)c(C)c(S(=O)(=O)NC2CCCCC2)c1C	-17	-1.5	-1.1	-6	9	4	4.8	-3.1
CCOc1ccccc1NC(=S)Nc1ncccc1C	3	-2.2	0.4	-3	13	1	5.2	4.2
Cc1ccc(S(=O)(=O)NC(=O)NC(=O)N(C)S(=O)(=O)c2ccc(C)cc2)cc1	-4	-0.5	2.4	-8	-15	0	1.4	-4.4
O=C(NCc1ccccc1C(F)(F)F)C1CCC(=O)N(C2CC2)C1 (stereo not given)	-7	1.3	0.7	-2	-18	-2	4.4	-7.9
CC(NC(=O)CCc1nnc(CCCc2ccccc2)o1)c1ccccc1 (stereo not given)	-17	1.4	-1.0	-4	39	-6	1.9	3.3
Cc1ccc(C)c(CN2C(=O)COc3ccccc32)c1	-1	0.8	-0.1	-2	-9	3	4.1	3.9

Three compounds out of the list, sorted by molecular weight, largest number first.
SMILES	Calb FLC	RanGTP-Imp inh	A1 inh	Beta cell apopt	T cruzi inh	B2AR ag	UCH37 DUB inh	LANA-H2A inh
COc1ccc(C(=O)NC2CCN(CC(=O)N3CCCCC3)CC2)cc1	-5	3.4	0.2	-4	-10	-2	3.0	-0.7
O=C(NCc1ccccc1C(F)(F)F)C1CCC(=O)N(C2CC2)C1 (stereo not given)	-7	1.3	0.7	-2	-18	-2	4.4	-7.9
O=C(N1CCOCC1)N1CCCN(C(=O)N2CCOCC2)CC1	8	?	-0.2	-1	-20	-4	1.4	-0.8

Next compounds follow.
SMILES	Calb FLC	RanGTP-Imp inh	A1 inh	Beta cell apopt	T cruzi inh	B2AR ag	UCH37 DUB inh	LANA-H2A inh
O=C(NCCn1ccc2ccccc21)c1ccc(S(=O)(=O)N2CCCCC2)cc1	-4	-4.2	-0.4	5	23	3	2.5	12
CCCCN(CCCC)CCNC(=O)c1cn(C)c2ccc(S(=O)(=O)N3CCCC3)cc2c1=O	4	4.6	-0.6	1	-10	14	2.9	-1.5
Cc1c(C(=O)NCc2ccc3c(c2)OCO3)cccc1[N+](=O)[O-]	6	-1.8	0.7	-5	-19	-9	3.0	3.0
CCOC(=O)C(C)Sc1nnc(CNC(=O)c2ccc(OC)cc2)n1C1CCCCC1 (stereo not given)	-15	5.2	-0.2	-3	10	12	2.7	-0.4
CCC(=O)NCCCCCCNC(=O)CC	-4	2.1	1.3	-3	-8	3	3.2	-0.7
O=C(Nc1cc(C(F)(F)F)ccc1Cl)C(Sc1nnc(-c2cccs2)o1)c1ccccc1 (stereo not given)	9	-0.9	-0.1	4	-13	-7	4.1	1.0
O=C(CSC1=NCCS1)Nc1ccnc2ccccc12	-22	1.8	-0.8	104*	-22	6	10	-4.7
O=C(NCCc1csc(-c2cccnc2)n1)c1ccccc1	-5	-0.3	0.4	2	-6	-7	1.6	0.7
Cc1ccc(NC(=O)c2cccc(C(F)(F)F)c2)cc1NC(=O)c1[nH]cnc1C(N)=O	.	.	-1.0	-3	.	-2	-0.6	0.0
CC1(C)NC(=O)N(CCCOc2ccc(Br)cc2Cl)C1=O	6	2.2	-0.7	-10	17	3	6.3	-1.1
CC(=O)c1nn(-c2ccc(Cl)cc2)c(=O)[nH]c1=O	3	-0.4	1.4	9	14	8	3.2	2.9
O=c1cc(-c2ccccc2)nc(SCCOc2ccccc2Cl)[nH]1	-2	?	-0.9	-6	-4	4	-3.1	-8.1
O=C1CSC(=Nc2ccccc2[N+](=O)[O-])N1	-11	?	-0.3	9	-13	-2	29*	3.9
Cc1ccc(S(=O)(=O)c2nc(-c3ccc(F)cc3)oc2SCC(=O)NCC2CCCO2)cc1 (stereo not given)	4	-3.7	0.0	0	-13	-1	-0.3	2.8
CCCC1(CCC)C(=O)NC(=NCCc2ccc(OC)c(OC)c2)NC1=O	-21	4.8	-0.6	-2	-20	4	3.6	-2.7
CCc1ccc(NC(=O)c2cc(Br)ccc2Br)cc1	-6	2.3	-0.5	2	0	.	0.8	0.7
CCNC(=S)NNC(=O)CSc1nc2ccccc2[nH]1	?	-0.1	0.6	5	-13	12	5.6	1.6
Cc1nc(SCc2nc3ccc(Br)cc3[nH]2)c2oc3ccccc3c2n1	.	.	-0.1	7	.	-4	1.3	8.7
S=C(Nc1ccccc1)N1CCn2c(nc3ccccc32)C1	-8	7.2	1.2	4	-25	-14	0.5	-2.0
Cc1cc(O)c2c(C)c(CC(=O)N3CCN(C(=O)C4COc5ccccc5O4)CC3)c(=O)oc2c1 (stereo not given)	9	4.2	0.7	-1	-2	12	-25	-7.5
CC1c2ccsc2CCN1S(=O)(=O)c1ccccc1 (stereo not given)	1	-4.7	0.7	-5	19	-1	-1.0	0.3
S=c1[nH]nc(C2CC2)n1Cc1ccco1	10	-0.3	-0.5	3	19	-3	3.8	2.9
O=C(O)c1cccnc1Br	-28	-3.2	0.7	-6	-5	4	-0.9	3.6

From PubChem BioAssay

The order is random; overall some 4.3% were active at least once.
